Source: PubChem (several laboratories)
PrP 5UTR inh = suppresses PrP 5' UTR mRNA reporter expression; 340,000 tested, 0.35% active; inhibition, % (no concentration beside the values); AID 488862; cell-based PrP 5' UTR mRNA reporter, plate reader;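 active = every replicate at 50% or more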;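 also: 0 = median of the neutral control wells; tested in H4 reporter cells; numbers are from one replicate; inactives centre near -14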
ugtP null kill = kills S. aureus RN4220 lacking UgtP; S. aureus RN4220 ugtP deletion, OD600 growth, 16 h; some inactives read as strong as hits; growth inhibition, % (concentration not given with the values); 330,000 tested, 0.54% active; AID 1259309;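 active = z-score under -3 and OD600 up to 0.15 on both plates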;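 also: plate controls were untreated wells for no effect and antibiotic for full effect; wells of about 80 µL received 100 nL stock; the first replicate is given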
Bead autofluor = flagged as autofluorescent in microsphere protease counterscreen | fluorescence intensity (concentration not given with the values) | compound autofluorescence counterscreen, microsphere flow cytometry; hits give high values | 360,000 tested, 3.1% active;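 active = at least 3 SD above the mean of all compounds, about 16000 in these data; inconclusive = too few beads counted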;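 also: 100 nL of 1 mM stock went into each well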
Mtb hypoxia inh = inhibitors of hypoxia-regulated fluorescent reporter in Mycobacterium tuberculosis | M. tuberculosis hypoxia-regulated fluorescent reporter, fluorescence | fluorescence inhibition, % (concentration not given with the values) | 300,000 tested, 0.1% active | AID 1159583;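 active = 35 to 45% if threefold the growth effect, above 45% if 1.5-fold the growth effect; inactive = the rest, general growth blockers included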;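 also: wells of about 50 µL received 100 nL stock; 0% = vehicle wells and 100% = reference inhibitor wells; whole bacteria with a GFP reporter of the hypoxia response; strong numbers were not always called active; many hits fall short of the cut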
BJeLR lethal = kills HRASV12-expressing BJeLR cells; BJeLR (HRASV12) viability, CellTiter-Glo ATP luminescence, 48 h; reference of the scale not given here; inhibition, % (concentration not given with the values); 300,000 tested, 0.17% active; AID 1554;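 active = replicate mean above 50%; inconclusive = above 50% but judged a plate artefact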;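 also: 50 nL library stock added to about 25 µL; numbers are from one replicate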
RN4220 kill = S. aureus RN4220 growth inhibition | OD600, 16 h | inhibition, % (test concentration not listed) | 330,000 tested, 0.33% active;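 active = z-score of -3 or lower and OD600 up to 0.18 on both plates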;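 also: plate controls were untreated cells for no effect and reference antibiotic for full effect; stock transfer was 100 nL into about 80 µL; one replicate is shown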
Mtb hypoxia inh growth = second read-out of Mtb hypoxia inh, no call of its own (marks repeat the call); growth inhibition, %; measured here: M. tuberculosis growth (absorbance);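 0% = vehicle and 100% = reference antibiotic; read after six days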
* = called active by the depositor; ? = inconclusive; . = not tested or not shown; & = joins results of further samples. Not a hit list. About 4% of those tested had a hit in this group.

SMILES	PrP 5UTR inh	ugtP null kill	Bead autofluor	Mtb hypoxia inh	Mtb hypoxia inh growth	BJeLR lethal	RN4220 kill
CCC[C@@H](CN1CCC[C@H]1CN1C(N)=NC[C@H]1CC(C)C)N1C[C@@H](Cc2ccccc2)N(CCc2ccc(Cl)c(Cl)c2)C1=N	1	100*	3024	.	.	.	100*
CCOc1ccc(C(=O)NCC(=O)OCc2csc(-c3ccccc3)n2)cc1	-28	12	2037	6	-7	-3	-2.1
CN1CCN(C(=O)/C(=C\c2cccc([N+](=O)[O-])c2)NC(=O)c2cccs2)CC1	-2	3	3161	14	4	10	5.3
CC(C)c1oc(=O)cc2c1C(O)C1OC(=O)[C@@]3(C)CCC(O)[C@@]2(C)C13 (some centres not stated)	.	8	.	4	-6	.	8.4
c1ccc(OCCN2CCNCC2)cc1	1	-2	4112	3	16	.	1.4
Cc1nnc(SCC(=O)NCc2ccc3c(c2)OCO3)[nH]c1=O	-27	-1	8920	12	2	1	1.4
Cc1ccc(-c2nn(-c3ccccc3)cc2/C=N/NS(=O)(=O)c2ccccc2)cc1	-42	.	13591	.	.	9	.
O=[N+]([O-])c1ccc(N2CCCC2)cc1N/N=C1\CN2CCC1CC2	-20	.	2113	.	.	-6	.
CC(C)c1ccc(NC(=O)COc2ccccc2)cc1	-71	8	3799	2	3	-6	2.5
Cc1c(NC(=O)c2cc(-n3cnnc3)ccc2Cl)cccc1-c1nc2ccccc2o1	-18	-6	2147	.	.	.	-1.0
N#Cc1c(NC(=O)CSc2ncn(-c3ccccc3)n2)sc2c1CCCC2	-10	-10	4057	.	.	-15	3.5
O=C(COc1ccc2ccccc2c1Br)Nn1cnnc1	-16	10	8074	4	-1	10	7.7
Cc1ccc(S(=O)(=O)N2CCC(C(=O)Nc3ccc(S(=O)(=O)N4CCCC4)cc3)CC2)cc1C	-23	-4	?	7	-3	12	4.2
O=C(NN=Cc1ccccc1OC(F)F)c1cc(-c2ccncc2)nc2ccccc12	.	1	.	7	8	.	-1.2
CCCC[C@H]1COCCS(=O)(=O)N1Cc1ccc(F)cc1	2	.	3766	.	.	0	.
Cc1ccc(C(=O)N2CCCC(C(=O)c3ccc(Cl)cc3C)C2)cn1 (configuration not stated)	-20	2	5301	10	11	-1	1.4
CC(=O)Nc1nc2c(s1)CCc1ccccc1-2	-19	-5	5512	-2	-3	4	4.0
CCc1cc(Cl)c(OC)c(C(=O)NC[C@@H]2CCCN2CC)c1O	-9&4	.	5161&5880	.	.	6	.
Nc1nc2c(s1)CCc1ccccc1-2	-31	1	3690	3	7	1	5.3
COc1ccc(N2CCN(S(=O)(=O)c3cc(C)ccc3OC)CC2)cc1	-23	1	5083	-2	-2	0	-1.5
CCOc1cc(C(=O)Nc2cccnc2)cc(OCC)c1OCC	-3	6	3891	9	3	4	1.9
COc1cc(NC(=O)c2ccc(Br)cc2)c(OC)cc1NC(=O)c1ccccc1	-13	7	4140	3	3	4	4.3
Cc1cccc(OCCn2c(CCCO)nc3ccccc32)c1	-12	-1	3682	11	8	2	2.7
Cc1cc(C)nc(N/N=C/C(Cl)=C/c2ccccc2)n1	-46	.	11249	.	.	-2	.
O=C(c1ccc(Cl)cc1)C1CCCN(C(=O)c2csnn2)C1 (configuration not stated)	-24	-1	4330	19	13	2	6.4
N#CC1=C(N)Oc2cc(N)ccc2C1c1ccccc1F (configuration not stated)	-17	3	7193	14	8	19	2.6
COc1ccc(OCC(=O)NNC(=O)C2CCCO2)cc1 (configuration not stated)	8	-2	2032	4	7	8	1.0
CCOc1ccccc1NC(=O)COC(=O)CN(C)S(=O)(=O)c1ccc(C)cc1	-20	-5	7901	8	2	0	5.2
CCC(C)c1ccccc1NC(=O)C(C)OC(=O)c1ccco1 (configuration not stated)	-4	0	6773	9	0	-5	1.3
O=C(NC(Cc1ccccc1)C(=O)O)/C(=C\c1ccc(F)cc1)NC(=O)c1ccccc1 (configuration not stated)	-22	.	4195	.	.	6	.
NC(=O)C1(Nc2ccc(C(=O)O)cc2)CCCC1	-14	-6	2818	-3	5	.	-1.0
O=C(O/N=C1\CCS(=O)(=O)c2sccc21)C1CC1	-26	.	3235	.	.	-3	.
COc1ccccc1C(=O)NCC(=O)OCC(=O)c1ccc(Cl)s1	-10	-2	6361	1	-4	-1	3.8
COc1ccc(C(=O)N(CCc2ccccc2)Cc2ccccc2)cc1S(=O)(=O)N1CCOCC1	-15	2	5968	-2	6	-5	2.7
C=Cc1cccc(NC(=O)c2ccc(NC(=O)c3ccco3)cc2)c1	-11	2	5559	11	8	5	1.9
C=CCc1cc(C=C2C(=O)N(C)C(=O)N(C)C2=O)cc(OCC)c1OCc1ccccc1	-7	74	2425	.	.	-5	-12
CN(C)c1ccc(/C=N/N(CCC(=O)NC(C)(C)C)C2=NS(=O)(=O)c3ccccc32)cc1	-16	.	3708	.	.	4	.
O=C(CCCl)Nc1cc(SCCO)cc([N+](=O)[O-])c1	-41	-2	20902*	2	5	-16	2.8
CCN1CCN(CCc2nc3cc(NC(=O)COc4ccc(Cl)cc4)ccc3n2C)CC1	-15	-1	3765	12	4	-4	-0.3
COc1ccc(C(=O)CCC(C)(C)[N+](=O)[O-])cc1OC	-11	5	3846	11	14	0	5.5
Cc1cc(NC(=O)c2ccc(NC(=O)c3cccs3)cc2)no1	-46	0	9663	-2	-3	-15	1.9
CC(=O)Nc1ccc(C(C)=NNC(=O)c2ccc(F)cc2)cc1	.	3	.	11	-2	.	4.0
Cc1cccc2sc(N(CCN3CCOCC3)C(=O)CCS(=O)(=O)c3ccccc3)nc12	-15	1	5890	13	-3	-7	4.1
COc1ccc(NC(=S)NC(C)C(c2ccccc2)N2CCOCC2)cc1 (configuration not stated)	-3	5	3520	1	8	4	8.8
COc1cc(C(=O)N/N=C/C2CC=CCC2)cc(OC)c1OC (configuration not stated)	0	.	9872	.	.	9	.
CC(=O)OCC(OC(C)=O)C(OC(C)=O)C(OC(C)=O)C(=O)Nc1ccc(C)cc1 (configuration not stated)	-6	-3	?	-2	-1	-5	1.5
CCC1=NN(C(=O)c2ccc(Cl)cc2)C(O)(c2ccccc2)C1 (configuration not stated)	9	9	3979	3	1	-2	0.2
COc1ccc(S(=O)(=O)Oc2ccc(C(=S)N3CCOCC3)cc2OC)cc1	-5	10	3381	9	2	-9	8.3
CCOCCCNC(=O)C1(O)c2cc(Br)ccc2NC(=O)N1c1ccc(OCC)cc1 (configuration not stated)	-18	-3	3265	4	-3	2	-3.6
Oc1ccccc1C1NN=C(c2ccccc2)S1 (configuration not stated)	-32	-21	.	10	1	0	-1.4
CSc1ccccc1C(=O)Nc1c(C)cccc1C	0	7	5259	1	-9	2	-3.4
CC1CCc2cc(F)ccc2N1C(=O)c1cccs1 (configuration not stated)	-25	3	4216	16	12	11	4.6
O=C(OCC(=O)N1CCN(c2ccccc2)CC1)c1cnc(Cl)c(Cl)c1	.	2	.	7	1	-2	1.2
COc1ccc(Nc2nc(C(=O)N3CCc4cc(OC)c(OC)cc4C3)cs2)cc1	3	0	3824	-6	-4	-3	0.5
Clc1ccc(Cl)c(-c2nn3c(Cn4cnc5ccccc54)nnc3s2)c1	-13	12	5816	17	6	1	8.9
O=C(O)c1ccc(CSCc2ccccc2Cl)o1	-17	2	3548	10	5	-2	3.2
COc1cccc(C(=O)NC(c2ccccc2)C2CCCC2)c1 (configuration not stated)	-15	22	4986	15	5	2	5.3
COc1cccc(-n2c(SCC(N)=O)nnc2-c2ccncc2)c1	-24	-2	7752	-6	7	-1	0.0
C=CCN1C(=O)C2C3CC(=O)C(c4ccccc43)C2C1=O (configuration not stated)	-21	14	4688	4	-2	-2	7.1
Cc1cc(C)c(S(=O)(=O)N2CCCC2=O)c(C)c1N(C)S(C)(=O)=O	-1	6	4146	15	9	-2	1.5
The results go on.
SMILES	PrP 5UTR inh	ugtP null kill	Bead autofluor	Mtb hypoxia inh	Mtb hypoxia inh growth	BJeLR lethal	RN4220 kill
CCSc1nnc(CSc2ncccn2)n1C	-18	5	3908	14	8	7	2.2
CCCCN(C)S(=O)(=O)c1ccc(C(=O)Nc2nnc(C3=COCCO3)o2)cc1	-18	4	1959	-3	-1	0	14
Nc1nonc1-n1nncc1-c1ccccc1	-4	4	4756	.	.	-3	-0.2
Cc1ccc(-c2nnc3c4ccccc4c(C)nn23)cc1NC(=O)CN1CCOCC1	.	18	.	1	-5	-1	7.7
CC(C)c1ccc(N(C(=O)c2csnn2)C(C(=O)NC2CCCC2)c2cccnc2)cc1 (configuration not stated)	-4	4	3479	4	2	-12	3.5
CCc1cc2c(NCCN3CCCCC3)ncnc2s1	-19	-13	4055	2	6	5	9.6
COc1ccccc1NS(=O)(=O)c1ccc2c(c1)CCN2C(=O)CCC(=O)O	.	5	4201	10	3	-10	3.0
Cc1ccc(NC(=S)N2CCC(C(N)=O)(N3CCCCC3)CC2)c(C)c1	-2	4	3620	-8	-1	-19	5.4
CC(OC(=O)/C=C/c1ccccc1)C(=O)N1CCc2ccccc21 (configuration not stated)	-22	7	4561	7	-2	6	1.2
CCOc1ccc(N2C(=O)CSC2c2ccncc2)cc1 (configuration not stated)	-3	14	6800	5	3	5	4.6
COc1ccc(OC)c2sc(N(CCCN(C)C)C(=O)CCS(=O)(=O)c3ccccc3)nc12	-3	13	?	13	4	2	4.4
CC(C)c1ccc(NC(=O)CCNS(=O)(=O)c2ccc3[nH]c(=O)oc3c2)cc1	-3	11	4597	4	-3	3	5.3
CCc1cc(-c2n[nH]c(=S)n2CC)cs1	-17	4	2163	3	-6	-1	2.0
CN(CC(=O)Nc1ccccc1Br)C(=O)COc1ccc2ccccc2c1	-20	1	9082	11	10	.	-2.0
Cc1ccccc1CSCC(=O)NC1CCCC1	-6	-1	2837	.	.	-2	0.5
COc1cc(NC(=O)c2ccc(C)cc2C)ccc1NC(=O)c1cc2ccccc2o1	-7	5	3624	5	14	2	5.6
CCC(C)(C)c1ccc(OCCN2C(=O)NC(C)(C)C2=O)cc1	-16	0	22180*	5	15	4	11
COc1ccc(-c2noc(CCC(=O)N3CCN(Cc4ccccc4)CC3)n2)cc1	-28	4	3219	.	.	-1	4.3
O=c1[nH]c2c(c(=O)[nH]1)CCC2	-11	4	4154	0	-3	3	6.8
CC(=O)Nc1ccc(Nc2nc(C)c([N+](=O)[O-])c(N(C)c3ccccc3)n2)cc1	21	-1	4172	18	4	2	13
Nc1c(-c2ccccc2)cnn1-c1ccccc1	-71	6	4170	9	4	4	6.6
O=C(NNC1CCN(Cc2ccccc2)CC1)c1ccccc1	-32	5	3755	10	9	.	1.7
O=C(CCN1CCc2ccccc2C1)Nc1ccc(F)cc1	-5	3	6496	3	5	-4	2.8
Cc1cc(C)nc(CCNC(=O)c2cc(COc3ccc(F)cc3Cl)on2)n1	-18	-3	4691	4	5	1	-0.1
O=C(CCNS(=O)(=O)c1ccccc1)OCC(=O)c1ccc(Cl)cc1	0	4	6036	11	1	0	4.9
COc1ccc2nc(/N=C(\N)NC(=O)Nc3ccccc3)nc(C)c2c1	-27	.	2302	.	.	11	.

In another format: seven of the compounds above
structure | PrP 5UTR inh | ugtP null kill | Bead autofluor | Mtb hypoxia inh | Mtb hypoxia inh growth | BJeLR lethal | RN4220 kill
CCC(C)(C)c1ccc(OCCN2C(=O)NC(C)(C)C2=O)cc1 | -16 | 0 | 22180* | 5 | 15 | 4 | 11
COc1ccc(-c2noc(CCC(=O)N3CCN(Cc4ccccc4)CC3)n2)cc1 | -28 | 4 | 3219 | . | . | -1 | 4.3
O=c1[nH]c2c(c(=O)[nH]1)CCC2 | -11 | 4 | 4154 | 0 | -3 | 3 | 6.8
CC(=O)Nc1ccc(Nc2nc(C)c([N+](=O)[O-])c(N(C)c3ccccc3)n2)cc1 | 21 | -1 | 4172 | 18 | 4 | 2 | 13
Nc1c(-c2ccccc2)cnn1-c1ccccc1 | -71 | 6 | 4170 | 9 | 4 | 4 | 6.6
O=C(NNC1CCN(Cc2ccccc2)CC1)c1ccccc1 | -32 | 5 | 3755 | 10 | 9 | . | 1.7
O=C(CCN1CCc2ccccc2C1)Nc1ccc(F)cc1 | -5 | 3 | 6496 | 3 | 5 | -4 | 2.8
